# Source: PubChem (several laboratories)
# Mtb hypoxia inh – inhibitors of hypoxia-regulated fluorescent reporter in Mycobacterium tuberculosis; M. tuberculosis hypoxia-regulated fluorescent reporter, fluorescence; fluorescence inhibition, % (concentration not given with the values); 300,000 compounds, 0.1% hits;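 active = 35 to 45% if threefold the growth effect, above 45% if 1.5-fold the growth effect; inactive = the rest, general growth blockers included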;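 note: wells of about 50 µL received 100 nL stock; 0% = vehicle wells and 100% = reference inhibitor wells; whole bacteria with a GFP reporter of the hypoxia response; strong numbers were not always called active; many hits fall short of the cut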
# RN4220 kill – S. aureus RN4220 growth inhibition | OD600, 16 h | inhibition, % (concentration not given with the values) | 330,000 compounds, 0.33% hits | AID 1259311;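 active = z-score of -3 or lower and OD600 up to 0.18 on both plates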;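 note: plate controls were untreated cells for no effect and reference antibiotic for full effect; stock transfer was 100 nL into about 80 µL; one replicate is shown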
# Autofluor counter – counter-screen for toxin protease inhibitors: compound fluorescence; compound autofluorescence counterscreen, microsphere flow cytometry; hits give high values; fluorescence intensity (concentration not given with the values); 360,000 compounds, 3.1% hits;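 active = at least 3 SD above the mean of all compounds, about 16000 in these data; inconclusive = too few beads counted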;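 note: 100 nL of 1 mM stock went into each well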
# BJeLR lethal – BJeLR cell viability loss | BJeLR (HRASV12) viability, CellTiter-Glo ATP luminescence, 48 h; reference of the scale not given here | inhibition, % (no concentration beside the values) | 300,000 compounds, 0.17% hits | AID 1554;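 active = replicate mean above 50%; inconclusive = above 50% but judged a plate artefact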;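 note: 50 nL library stock added to about 25 µL; numbers are from one replicate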
# ugtP null kill – kills S. aureus RN4220 lacking UgtP; S. aureus RN4220 ugtP deletion, OD600 growth, 16 h; some inactives read as strong as hits; 330,000 compounds, 0.54% hits; growth inhibition, % (concentration not given with the values); AID 1259309;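 active = z-score under -3 and OD600 up to 0.15 on both plates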;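 note: plate controls were untreated wells for no effect and antibiotic for full effect; wells of about 80 µL received 100 nL stock; the first replicate is given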
# PrP 5UTR inh – suppresses PrP 5' UTR mRNA reporter expression; cell-based PrP 5' UTR mRNA reporter, plate reader; inhibition, % (test concentration not listed); 340,000 compounds, 0.35% hits;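 active = every replicate at 50% or more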;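 note: 0 = median of the neutral control wells; tested in H4 reporter cells; numbers are from one replicate; inactives centre near -14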
# Mtb hypoxia inh growth – second read-out of Mtb hypoxia inh, no call of its own (marks repeat the call); growth inhibition, %; measured here: M. tuberculosis growth (absorbance);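 0% = vehicle and 100% = reference antibiotic; read after six days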
# Active calls of the source: *; ? = inconclusive; . = not tested or not shown.
SMILES,Mtb hypoxia inh,Mtb hypoxia inh growth,RN4220 kill,Autofluor counter,BJeLR lethal,ugtP null kill,PrP 5UTR inh
COc1cc(C=NNC(=O)c2ccc(-c3ccccc3)cc2)cc(OC)c1O,20,20,34,.,.,13,.
Cc1nc2nc(C)c(NS(=O)(=O)c3cccs3)c(=O)n2[nH]1,5,15,2.3,3664,-4,3,-17
CC(=O)NC1C(OC(=O)Cc2ccccc2)OC(COC(C)=O)C(OC(C)=O)C1OC(C)=O (stereo not drawn),-2,-3,-1.0,4453,-5,1,-21
CC1(C)N=c2ccc([N+](=O)[O-])c(N)c2=[N+]1[O-],7,8,81,.,-6,69,-11
CC(=O)Nc1ccc(SCC(=O)c2c(N)n(Cc3ccccc3)c(=O)n(C)c2=O)cc1,-6,-5,-1.7,3508,2,-2,-9
Cc1cc(/C=C2\C(=O)NC(=O)N(Cc3ccccc3Cl)C2=O)c(C)n1-c1ccc(C(=O)O)cc1,8,7,3.5,4606,7,9,-28
CCOC(=O)C1(CCOC)CCN(C2C3CC4CC(C3)CC2C4)CC1 (stereo not drawn),3,1,6.2,2284,3,10,-20
COC(=O)C1=C(c2ccc(OC)c(OC)c2)CC2CCC1N2C(=O)NCc1cccc2ccccc12 (stereo not drawn),7,8,0.3,.,.,-11,.
CCCCN(C(=O)c1cccs1)C1CCS(=O)(=O)C1 (stereo not drawn),8,7,3.7,5678,11,14,-27
COc1ccc(NC(=O)COC(=O)c2ncc(Cl)c(Cl)c2Cl)c(OC)c1,6,6,2.3,9262,-1,-3,-20
Cc1cc(OCC(=O)NCc2ccccn2)c2c(C)cc(=O)oc2c1,-2,2,2.2,5450,4,0,0
Cc1nc2ccsc2c(=O)n1-c1ccc(Cl)cc1,5,-2,1.7,2278,0,8,-24
CCOc1ccc(N2C(=O)CC(SC(=NC)Nc3ccc4c(c3)OCO4)C2=O)cc1 (stereo not drawn),.,.,2.3,2402,-1,3,-26
Cc1cccc(OCCC(=O)NCC(=O)Nc2cccc(C)c2C)c1,3,11,1.7,2307,-6,-2,-28
CCn1c(CC(=O)Nc2ccccc2F)nnc1SCC(=O)Nc1nnc(C)s1,8,1,1.7,3554,6,3,-28
COc1ccccc1Nc1nc(N)nc(CSc2ncccn2)n1,7,6,3.1,4049,-7,1,-31
Cc1ccc(N/N=C(\C#N)C(N)=S)cc1C,.,.,.,4398,11,.,-36
Cc1ccccc1N(C(=O)c1csnn1)C(C(=O)NC1CCCCC1)c1ccncc1 (stereo not drawn),-4,-5,-3.8,4408,1,1,-7
CCCC(=O)Nc1ccc(Cl)c(NC(=O)C(C)(C)C)c1,10,11,0.5,7983,-2,7,.
Cc1coc2c1c(C)cc1oc(=O)c(CC(=O)NCC(=O)O)c(C)c12,9,4,3.4,2994,0,9,-9
CCOC(=O)N1CCN(c2cc(=O)n(-c3ccc(OC)cc3)c(=O)[nH]2)CC1,0,2,3.3,9865,.,0,-17
CCOc1ccccc1Oc1coc2cc(OC)ccc2c1=O,.,.,2.0,2701,10,5,-39
O=C(CSc1nnc(CNC(=O)c2ccccc2)o1)NCc1ccc(F)cc1,3,3,-1.6,5186,3,2,-12
N#Cc1ccccc1NC(=O)COC(=O)c1ccc(F)cc1F,11,10,1.2,5407,1,14,-21
O=S(=O)(Nc1cccc(-c2ccc3nncn3n2)c1)c1cccs1,10,5,5.0,2614,1,9,-19
CCSc1ncc(Cl)c(C(=O)Nc2ccccc2F)n1,9,2,2.7,3729,5,8,-14
CCCCc1nc2cc(C(=O)N3CCCCC3CCO)ccc2o1 (stereo not drawn),5,-13,2.7,7258,3,9,-13
CCN1C(=NCCOC)N[C@@H](c2cccs2)C(C(=O)OC)=C1C,.,.,.,3864,4,.,-11
COc1cc(NC(=O)CCN2CCOCC2)cc(OC)c1,12,-3,-0.8,3234,8,8,-25
CN(Cc1c(F)cccc1Cl)c1ccc(S(=O)(=O)N2CCOCC2)cn1,-5,1,3.5,13323,-2,-1,-20
Cc1onc(-c2ccccc2Cl)c1C(=O)Nc1nc2c(s1)CCCC2,.,.,-2.6,4760,6,-5,-48
COc1ccc(C2=NN(C(=S)Nc3ccccc3)C(c3ccccc3)C2)cc1 (stereo not drawn),6,6,3.6,2072,26,-45,-16
Cc1sc2nc(C3CC3)nc(SCC(=O)N3CCc4ccccc4C3)c2c1C,4,9,8.1,23515*,-6,11,-4
COc1ccc(/C(N)=N/OC(=O)COc2ccccc2Cl)cc1,.,.,6.3,1953,0,14,-43
Cc1cccc(NC(=O)N2CCCC2C(=O)NCc2ccccc2)c1 (stereo not drawn),9,-2,5.6,3895,-7,7,-15
O=C(Nc1nnc(SCc2ccccn2)s1)C1CC(=O)N(c2ccc(F)cc2)C1 (stereo not drawn),-1,1,-0.6,5889,5,4,-17
Cc1ccc(-n2nc(C)c(C=NNC(=O)c3cccnc3)c2Cl)cc1,0,-2,3.6,.,.,1,.
CSc1ccc(CCNC(=O)CS(=O)(=O)Cc2nc(-c3ccccc3F)oc2C)cc1,-7,-19,-4.2,5683,0,-7,-7
O=C(CCSc1nnc(-c2ccc(O)cc2)o1)N1CCOCC1,6,12,-1.8,3984,4,-1,-39
COc1ccc(NC(=O)Cc2ccsc2)cc1S(=O)(=O)N1CCCCC1,1,3,2.5,3506,.,9,-7
Cc1cc(N2CCCC2=O)ccc1S(=O)(=O)Nc1c(C)nn(C)c1C,1,14,1.8,4535,8,4,-11
Cc1ccc(S(=O)(=O)N2CCN(C(=O)c3cc(S(=O)(=O)N4CCOCC4)c(Cl)cc3Cl)CC2)cc1,28*,60*,5.1,3562,.,3,-15
Cc1noc(C)c1NC(=O)Nc1cccc2c1OC(CN(C)C(=O)NC(C)C)C(C)CN(C(C)CO)C2=O (stereo not drawn),11,7,3.2,.,.,-8,.
O=C(Nc1ccccc1)c1ccc(NC(=O)C2CC2)cc1,12,7,3.9,5441,2,-10,-79
Cc1cccc(C)c1NC(=O)COC(=O)c1ccc([N+](=O)[O-])o1,21,20,5.3,4381,3,22,-16
CC(=O)NC(CC(=O)NNC(=O)C(C)Oc1ccccc1F)c1ccccc1 (stereo not drawn),5,3,2.9,?,4,5,-12
O=[N+]([O-])c1ccc(NCc2ccccc2)c2nonc12,13,13,4.6,.,1,0,.
CC(=O)Nc1cccc2ccc(O)cc12,0,0,3.4,4134,.,1,-20
CCN(C[C@H]1N[C@@](CC)(C(=O)OC)[C@H]2C(=O)N(Cc3ccccc3)C(=O)[C@@H]12)C(=O)c1ccc(C)cc1,2,9,1.4,3437,.,-3,-4
O=C(NNC(=O)c1ccncc1)Nc1ccccc1,-7,-2,4.4,5461,-6,16,-10
O=S(=O)(c1ccc(F)cc1)N1CCN(C(=S)NCc2ccccc2)CC1,11,1,-1.8,3251,6,2,-9
Cc1ccc(OCCCn2ccnc2)c([N+](=O)[O-])c1,4,7,3.6,2123,6,-1,-19
Cc1cccc(NC(=O)c2sc(NC(=O)c3ccco3)c(C#N)c2C)c1C,-4,-2,28,6938,22,14,-27
CC1(C)OC(=O)N(c2ccccn2)C1(C)O (stereo not drawn),10,-1,5.0,2892,-4,-1,-10
CC(=O)c1nc(N2C(=O)CC(Cc3cccc(C)c3)C2=O)sc1C (stereo not drawn),1,-2,-0.6,9721,0,0,6
Cc1ccc(-n2ncc3c(NNC(=O)c4ccco4)ncnc32)c(C)c1,-1,7,1.1,3352,0,1,-26
O=C1CSC(=Nc2ccc(O)cc2)N1c1ccc(O)cc1,.,.,2.0,2073,.,8,-1
Cc1[nH]c2ccccc2c1C(=O)CSC(=S)N(C)C,4,18,0.5,2669,-15,-15,-40
COc1ccc(C2/C=C\CN(C(=O)C3CC3)[C@H](Cc3ccccc3)C(=O)N2Cc2ccc(F)cc2)cc1 (stereo partly drawn),.,.,.,4051,-3,.,-14
O=C(CCn1c(=O)[nH]c2ccccc2c1=O)N1CCN(c2cccc(C(F)(F)F)c2)CC1,0,9,-0.6,9037,-1,-9,-5

# Ordered by heavy-atom count (smallest number first): five of the compounds above
SMILES,Mtb hypoxia inh,Mtb hypoxia inh growth,RN4220 kill,Autofluor counter,BJeLR lethal,ugtP null kill,PrP 5UTR inh
CC(=O)Nc1cccc2ccc(O)cc12,0,0,3.4,4134,.,1,-20
CC(=O)c1nc(N2C(=O)CC(Cc3cccc(C)c3)C2=O)sc1C (stereo not drawn),1,-2,-0.6,9721,0,0,6
O=S(=O)(c1ccc(F)cc1)N1CCN(C(=S)NCc2ccccc2)CC1,11,1,-1.8,3251,6,2,-9
CC(=O)NC(CC(=O)NNC(=O)C(C)Oc1ccccc1F)c1ccccc1 (stereo not drawn),5,3,2.9,?,4,5,-12
COc1ccc(C2/C=C\CN(C(=O)C3CC3)[C@H](Cc3ccccc3)C(=O)N2Cc2ccc(F)cc2)cc1 (stereo partly drawn),.,.,.,4051,-3,.,-14

# Next section
SMILES,Mtb hypoxia inh,Mtb hypoxia inh growth,RN4220 kill,Autofluor counter,BJeLR lethal,ugtP null kill,PrP 5UTR inh
CCN(CC)c1ccc(C=NNC(=O)c2c[nH]c3ccccc23)cc1,1,-13,-2.9,.,.,-6,.
O=C(NN=Cc1ccc(F)cc1)c1ccc(OCc2ccccc2)cc1,-11,-7,-3.5,.,.,2,.
COc1cc(N)c(C(O)c2nccc3cc(OC)c(OC)cc23)cc1OC (stereo not drawn),-14,5,-5.6,3290,1,-7,-5
C/C(CC(=O)Nc1cccc(Cl)c1Cl)=N\NC(=O)C(=O)NC1CCCCC1,.,.,.,4110,-10,.,-2
O=C(NCCc1ccccc1)C(=O)NN=Cc1ccccc1C(F)(F)F,1,-6,2.6,.,.,5,.
CN(C)S(=O)(=O)c1ccc(NC(=O)CN2CCOCC2)cc1,12,4,6.5,4423,3,4,-15
CC(=O)Nc1cc(NC(C)=O)cc(C(=O)OC(C)C(=O)Nc2ccc(S(=O)(=O)N3CCCC3)cc2)c1 (stereo not drawn),-12,-3,-0.2,5733,-9,2,-16
CC1(C)COC(c2ccc3c(c2)OCO3)OC1,12,6,12,3927,.,-1,-34
COc1ccc(CCNC(=O)COC(=O)C2CC2)cc1,7,7,-0.1,4613,-4,1,-28
COc1ccc(NC(=S)NC(=O)/C=C/c2ccc(F)cc2)cc1,1,4,1.7,3669,-5,9,-16
COC(=O)c1csc(S(=O)(=O)N2CCCCC2)c1OC,-5,8,4.5,4599,-2,-1,5
COn1c(SCC(N)=O)nc2ccccc2c1=O,15,6,-6.1,3291,-8,-1,-9
Cc1nn2c(=O)cc(COC(=O)c3ccc(S(=O)(=O)N4CCCCC4)cc3)nc2s1,.,.,.,2458,-2,.,2
C=CCNC(=S)Nc1cc(C)ccn1,4,9,0.9,4115,1,3,-13
COc1ccc(CNC(=O)COC(=O)c2cc(-c3cccs3)nc3ccccc23)cc1OC,9,11,-9.6,3726,-10,-2,-13
CCCN(c1ccc(C)cc1)c1nc(=O)c2cccnc2s1,-19,-14,4.2,5411,-13,9,.
O=S(=O)(CCc1ccccc1)N1CCOCC1,8,8,1.0,2333,8,6,-1

# Entries from the list above containing a cyano group, in the order listed:
SMILES,Mtb hypoxia inh,Mtb hypoxia inh growth,RN4220 kill,Autofluor counter,BJeLR lethal,ugtP null kill,PrP 5UTR inh
Cc1ccc(N/N=C(\C#N)C(N)=S)cc1C,.,.,.,4398,11,.,-36
N#Cc1ccccc1NC(=O)COC(=O)c1ccc(F)cc1F,11,10,1.2,5407,1,14,-21
Cc1cccc(NC(=O)c2sc(NC(=O)c3ccco3)c(C#N)c2C)c1C,-4,-2,28,6938,22,14,-27
